P. yoelii liver: Plasmodium liver-stage growth inhibition, dose response, imaging, Malaria Box, P. yoelii, HepG2-A16-CD81EGFP (AID 602156). P. yoelii liver stage in HepG2-A16-CD81EGFP, imaging; first-round cut-off not given here. calls after a first round at 10 µM; hits with a dose series show IC50 in µM. actives 4.8% (n = 5,700); in the data active = a potency from the dose series;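 also: infected cells exposed to compound for 48 hours before fixation; stained parasite area by imaging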
Starred values were filed as active, the others as inactive; i = inactive.

entry	SMILES	P. yoelii liver
1	C=CCC1(Nc2ccccc2)CCCCC1	i
2	COC(=O)C1=CNC=C(C(=O)OC)C1c1cc(OC)c(OC)cc1OC	i
3	Cc1ccc(C)c(-c2csc(Nc3ccc(C)c(C)c3)n2)c1	i
4	Cc1cc(Nc2ccc(C)c(C)c2)n2nc(C)nc2n1	i
5	CCOc1cc(C=NN=C(N)N)ccc1OCc1ccccc1	i
6	Cc1cc(N2CCCCC2)nc(NCc2ccccc2)n1	i
7	Cc1[nH]c2ccc(Br)cc2c(=O)c1CC(C)C	0.244µM*
8	O=C(NCc1cccnc1)[C@@H]1C[C@H](NC2CCN(CCc3ccccc3)CC2)CN1Cc1ccc(Cl)cc1	i
9	CC[n+]1c(/C=C2\Sc3ccccc3N2CCO)ccc2cc(C)ccc21	i
10	Oc1ccc(-c2cncc(NCc3ccc(Cl)cc3)c2)cc1	i
11	Cc1ccn2c(NC(C)(C)CC(C)(C)C)c(-c3ccccc3OC(=O)CCc3ccccc3)nc2c1	i
12	COc1ccc(OC)c(C=NNC(=O)Cc2cc(=O)[nH][nH]2)c1	i

Next section:
entry	SMILES	P. yoelii liver
13	COc1ccc2nc(C)cc(Nc3ccc(Oc4ccc5ccccc5c4)c(Cl)c3)c2c1	i
14	CCOC(=O)c1c(C)oc2c1c1c(c3ccccc32)OCN(C2CCCC2)C1	i
15	CC(C)CC(N)C(=O)N1CCc2nc(Cc3ccc(F)cc3Cl)sc2C1 (centres undefined)	i
16	CN(C)CCCNc1c2ccccc2nc2ccccc12	i
17	CCCCCCC[N+](CC)(CC)CCCCc1ccc(Cl)cc1	i
18	c1ccc([Si]2(c3ccccc3)N[Si](c3ccccc3)(c3ccccc3)N[Si](c3ccccc3)(c3ccccc3)N2)cc1	i
19	CCCN(CCC)S(=O)(=O)c1cc(Br)cc2c1N(C(=O)C1CC1)CC2	i
20	COc1ccc(-c2cc(-c3ccc(C)cc3)n[nH]2)c(O)c1	i
21	COc1ccc(NC(=O)Cn2c(C)c(C=O)c3ccccc32)cc1	i
22	CC(C)c1ccc(-c2cncc(N[C@@H](C)c3ccccc3)n2)cc1	i
23	CS(=O)(=O)Nc1cccc(-c2cnc(N)c(-c3ccc(C(=O)N4CCOCC4)cc3)n2)c1	i
24	COc1cccc(-c2ccc(O)c(CNC34CC5CC(CC(C5)C3)C4)c2)n1	i

Next part
entry	SMILES	P. yoelii liver
25	Cc1cc2c(cc1C)NC(c1ccccc1F)C1=C(CC(C)(C)CC1=O)N2 (centres undefined)	i
26	O[Si](CCCN1CCCCC1)(c1ccccc1)C1CCCCC1 (centres undefined)	i
27	O=C(NCc1ccccc1)C(c1ccc(F)cc1)N(Cc1ccco1)C(=O)c1cnccn1 (centres undefined)	i
28	CCOC(=O)C1=CN(c2cc(C)ccc2C)C=C(C(=O)OCC)C1c1ccccc1OC	i
29	O=c1[nH]c(SCC(O)c2ccc(Cl)c(Cl)c2)nc2sc3ccccc3c12 (centres undefined)	i
30	Cc1cc(Nc2cccc(C(F)(F)F)c2)nc2ccc(NC(=O)c3cncc(Br)c3)cc12	i
31	O=C(Cc1cccnc1)N1CCC(Oc2ccncc2)CC1	i
32	Clc1ccc(-n2cc(-c3ccccc3)c3c(N4CCC(Cc5ccccc5)CC4)ncnc32)cc1	i
33	CCN(CC)C(=O)COc1ccccc1CNCc1ccccc1	i
34	CCOc1cccc2oc(=O)c(C(=O)Nc3cc(C(C)(C)C)on3)cc12	i
35	CCc1nc(N)nc(N)c1-c1ccc(Cl)cc1	0.00215µM*
36	COC(=O)CC(NC(=O)c1ccc(C)cc1)c1ccc2c(c1)OCO2 (centres undefined)	i

An excerpt of these results, field by field.
[24] COc1cccc(-c2ccc(O)c(CNC34CC5CC(CC(C5)C3)C4)c2)n1
  P. yoelii liver: i

[25] Cc1cc2c(cc1C)NC(c1ccccc1F)C1=C(CC(C)(C)CC1=O)N2 (centres undefined)
  P. yoelii liver: i

Carrying on.
entry	SMILES	P. yoelii liver
37	O=C(Nc1ccc(-c2nc3ccc(-c4nc5ccccc5o4)cc3[nH]2)cc1)c1ccc([N+](=O)[O-])cc1	i
38	CC(C)Cc1ccc(/C=C/C(=O)NC2CC2)cc1	i
39	CC1=NOC(=O)C1=Cc1ccc(-c2ccc([N+](=O)[O-])cc2)o1	i
40	O=c1sc(NCC(O)c2ccc(Cl)c(Cl)c2)nc2ccccc12 (centres undefined)	i
41	CC(C)CNC(=O)c1cnc(NCCc2ccncc2)nc1NCCc1ccccc1	i
42	CCNC(=O)N(CCCCOc1ccc(C(C)(C)CC)cc1C(C)(C)CC)Cc1ccc(OC)c(OCc2ccccc2)c1	i
43	COc1ccc(OC)c(-c2ccc(O)c(CNCCCN(C)C)c2)c1	i
44	O=[N+]([O-])c1ccc(Cl)c(-c2ccc(C=NNc3nc4ccccc4[nH]3)o2)c1	i
45	COc1ccc(OC)c(-c2ccc(O)c(CNCC3(O)CCCCC3)c2)c1	i
46	Cc1ccn2c(NC(C)(C)CC(C)(C)C)c(-c3ccccc3OC(=O)c3ccccc3C)nc2c1	i
47	O=C(NCc1ccccc1C(F)(F)F)C1CC(O)CN1C(=O)Nc1ccccc1 (centres undefined)	i
48	Cn1c(=O)n(C)c2cc(C=NNc3ncc(-c4ccccc4)s3)ccc21	i

Down the list, as entered above.
Nos. 26 to 35 in P. yoelii liver: i, i, i, i, i, i, i, i, i, 0.00215µM*

(cont.)
entry	SMILES	P. yoelii liver
49	CCC(C)(C#CCN1CCCC1)OC(C)=O (centres undefined)	i
50	Cc1oc2c(c1C(=O)NC1CCS(=O)(=O)C1)C(=O)c1ccccc1C2=O (centres undefined)	0.00229µM*
51	COc1ccc(Cl)cc1-n1c(-c2cccnc2)n[nH]c1=S	i
52	CCC(c1nc2ccccc2c(=O)n1-c1ccccc1OC)N(CCc1ccccc1)C(=O)CCc1ccccc1 (centres undefined)	i
53	COC(=O)C1=C(C)NC2=C(C(=O)CC(C)(C)C2)C1c1ccc(C)o1 (centres undefined)	i
54	CCc1nc2nc(C)cc(NCCc3cccc(C)c3)n2n1	i
55	COCCOC(=O)C1=C(C)NC2=C(C(=O)CC(c3ccc(OC)c(OC)c3)C2)C1c1ccccc1F (centres undefined)	i
56	FC(F)(F)c1ccc(-c2nc(C34CC5CC(CC(C5)C3)C4)cs2)cc1	i
57	COc1cccc(NC(=O)C2C3C=CC4(O3)C2C(=O)N(Cc2ccc3c(c2)OCO3)C4C(=O)NC2CCCCC2C)c1 (centres undefined)	i
58	CCN1CCCC1CNC(=O)CN1N=C(c2ccccc2)Cn2c(cc3ccccc32)C1=O (centres undefined)	i
59	c1ccc(CSc2scnc2[P+](c2ccccc2)(c2ccccc2)c2ccccc2)cc1	0.0685µM*
60	Cc1cc(Nc2ccc(I)cc2)n2ncnc2n1	i

Later entries.
entry	SMILES	P. yoelii liver
61	CCOC(=O)C1=C(C)NC2=C(C(=O)CC(c3ccc(Cl)cc3)C2)C1c1ccc(Br)cc1 (centres undefined)	i
62	OC1(c2ccc(Br)cc2)CCN(C2CCN(Cc3ccccc3)CC2)CC1	i
63	CCN(CC)CCCNC(=S)N(Cc1ccc(F)cc1)Cc1cc2cc(C)cc(C)c2[nH]c1=O	i
64	Cn1c2ccncc2c2cc([N+](=O)[O-])ccc21	i
65	CCCCCc1ccc(-c2cn3nc(CCCCC)sc3n2)cc1	i
66	Cc1ccc(S(=O)(=O)NC(Cc2ccccc2)C(=O)N2CCC(C3CCN(C(=O)c4ccc([N+](=O)[O-])o4)CC3)CC2)cc1 (centres undefined)	i
67	CCC(=O)Nc1ccc(C(=O)NN=Cc2cc([N+](=O)[O-])ccc2O)cc1	i
68	CCCCC(=O)N(C)CCCNc1ccnc2cc(Cl)ccc12	i
69	Cc1c(Cl)cccc1NC(=O)CCC(=O)NNC(=O)c1ccccc1	i
70	COc1ccc(C=C2SC(=Nc3ccc(F)cc3)NC2=O)c(OC)c1	i
71	N#Cc1nc(C(=O)N2CCOCC2)oc1N1CCOCC1	i
72	CCOC(=O)c1c[nH]c2c(CC)cccc2c1=O	i

The results go on.
entry	SMILES	P. yoelii liver
73	O=C1CC(N2CCCCCC2)C(=O)N1c1ccc(N2C(=O)CC(N3CCCCCC3)C2=O)cc1 (centres undefined)	i
74	O=C(NC1CCCCC1)c1noc2c1CCCCC2	i
75	COc1ccc2c(c1)-c1c(ssc1=S)C(C)(C)N2C(=O)c1cccc(Cl)c1	i
76	COc1cc(C=NNc2nc3ccc(Cl)cc3[nH]2)cc(OC)c1OC	i
77	CCOC(=O)c1ccc2c(c1)[C@@H]1C=CC[C@@H]1[C@H](c1cccc(OC)c1OC)N2	i
78	O=C1CCC2C3C=CC(C3)C12 (centres undefined)	i
79	O=C(Nc1ccc(Oc2cccc(Oc3ccc(NC(=O)c4ccc(Br)o4)cc3)c2)cc1)c1ccc(Br)o1	0.433µM*
80	CC[N+](CC)=c1scc(-c2ccc([N+](=O)[O-])cc2)s1	i
81	O=C(CCl)Nc1ccc(CN2CCCCC2)cc1	i
82	Cn1cc(C=Cc2cc[n+](C)cc2)c2ccccc21	i
83	N#Cc1c(N)nc(C(Cl)(Cl)Cl)nc1-c1ccccc1	i
84	Oc1ccc(-c2cncc(NCc3cccc(O)c3)c2)cc1	i

The results go on.
entry	SMILES	P. yoelii liver
85	O=C(NCCCN1CCCC1=O)c1cnc(N2CCN(Cc3ccccc3)CC2)nc1NCCc1ccccc1	i
86	CN1C(=Cc2cc[n+](C)cc2)Sc2ccccc21	i
87	Cc1ccn2c(NC(C)(C)CC(C)(C)C)c(-c3ccccc3OC(=O)C(C)(C)C)nc2c1	i
88	CCCCCCCCCCCC(=O)N(C)CCCNc1ccnc2cc(Cl)ccc12	i
89	OC(CN1CCN(C2c3ccccc3-c3ccccc32)CC1)Cn1c2ccc(Br)cc2c2cc(Br)ccc21 (centres undefined)	i
90	CC(=O)N(C1=C(N(C)C)C(=O)c2ccccc2C1=O)c1ccc(F)c(F)c1	i
91	O=C1NCCCCC1N(Cc1cccc(Oc2ccccc2)c1)C(=O)c1ccc(F)cc1 (centres undefined)	i
92	Cc1ccc(C(=O)C(C)[n+]2ccc(N(C)C)cc2)cc1 (centres undefined)	i
93	COc1cc(C=C(C#N)c2nc3ccccc3[nH]2)ccc1OCc1ccc(Cl)cc1	i
94	CCn1ncc(CN2CCC(C(=O)Nc3ccccc3-c3cccc(OC)c3)CC2)c1C	i
95	COc1cc(OC)cc(N2CCN(CCNCCOc3ccccc3)[C@@H](c3ccccc3)C2)c1	i
96	COc1cc(CNNc2nc3ccc(Cl)cc3[nH]2)cc(OC)c1OC	i

Going on with the list:
entry	SMILES	P. yoelii liver
97	CCN1C(=Cc2ccc3cc(OC)ccc3[n+]2CC)Sc2ccc(OC)cc21	i
98	CC1=CC(=C(C#N)c2nc3ccccc3s2)C=C(C)N1c1ccc2c(c1)OCO2	i
99	CN1CCCC1CCNc1ncc(C(=O)NCCc2ccccc2)c(NCC2CCCCC2)n1 (centres undefined)	i
100	CC(C)CNc1nc(NCCCn2ccnc2)ncc1C(=O)NCCc1ccccc1	i
101	CCOC(=O)C(=O)N1c2ccccc2-c2c(ssc2=S)C1(C)C	i
102	CC[n+]1c(C=C2Sc3ccc(OC)cc3N2C)ccc2cc(C)ccc21	i
103	COc1ccc(C2=C(c3ccc(OC)cc3)C3(c4ccccc4)C(=O)C2(c2ccccc2)C2C(=O)N(c4ccc(OC)cc4[N+](=O)[O-])C(=O)C23)cc1 (centres undefined)	i
104	N#C/C(=C\c1cc2ccccc2nc1Cl)c1nc(-c2ccc(Cl)c(Cl)c2)cs1	i
105	CC(=O)Nc1cc(C(=O)Nc2ccc(C3=NCCN3)cc2)ccc1C(=O)Nc1ccc(C2=NCCN2)cc1	i
106	CCOc1ccc2nc(C)cc(Nc3ccc(N(C)C)cc3)c2c1	i
107	Oc1ccccc1Nc1nc(-c2ccccc2O)nc2ccccc12	i
108	c1ccc(OCCOc2ccc(Nc3c4ccccc4nc4ccccc34)cc2)cc1	0.559µM*

Additional entries.
entry	SMILES	P. yoelii liver
109	Cc1cc(C)n(CC(O)Cn2c3ccc(Cl)cc3c3cc(Cl)ccc32)n1 (centres undefined)	i
110	Cc1cc(Nc2ccc(Br)c(C)c2)n2nc(C)nc2n1	i
111	COc1cc2cc(C(=O)Nc3ccccc3)c(N)nc2cc1OC	i
112	CCCCCCCCCCCCCC(=O)Oc1ccccc1-c1nc2cc(C)ccn2c1NC(C)(C)CC(C)(C)C	i
113	COc1ccc2c(c1OC)C(=O)N1c3ccccc3N=C(c3ccc(I)cc3)CC21 (centres undefined)	i
114	COc1cccc(C(=O)N(C)CCCNc2ccnc3cc(Cl)ccc23)c1	i
115	CCOC(=O)c1c(NC(=O)c2ccc([N+](=O)[O-])cc2[N+](=O)[O-])sc2c1CCCC2	i
116	Cc1ccn2c(NC(C)(C)CC(C)(C)C)c(-c3ccccc3OC(=O)c3ccc(Cl)cc3)nc2c1	i
117	Cc1ccc(-c2ccc(C#N)c(OCC(=O)NCCc3ccccc3)n2)c(C)c1	i
118	O=c1c2c3c(sc2[nH]c(=S)n1C1CCCCC1)CN(Cc1ccccc1)CC3	i
119	COC(=O)C1=C(C)NC2=C(C(=O)c3ccccc32)C1c1ccc(OCC#N)c(OC)c1 (centres undefined)	i
120	Cc1ccccc1OCCSc1nc2ccc(NC(=O)c3ccccc3)cc2s1	i

3 of these compounds in a different format:
110. Cc1cc(Nc2ccc(Br)c(C)c2)n2nc(C)nc2n1
  P. yoelii liver = i

117. Cc1ccc(-c2ccc(C#N)c(OCC(=O)NCCc3ccccc3)n2)c(C)c1
  P. yoelii liver = i

120. Cc1ccccc1OCCSc1nc2ccc(NC(=O)c3ccccc3)cc2s1
  P. yoelii liver = i

The list goes on:
entry	SMILES	P. yoelii liver
121	COc1cccc(NC(=O)c2sc3ncn(CC(=O)N4CCN(c5ccccn5)CC4)c(=O)c3c2C)c1	i
122	CCCOC(=O)C1=C(C)NC2=C(C(=O)CC(c3ccc(OC)c(OC)c3)C2)C1c1ccc(Br)cc1 (centres undefined)	i
123	CC1CC(C)CN(c2ccc([N+](=O)[O-])cc2-c2nn[nH]n2)C1 (centres undefined)	i
124	Cc1ccnc(Nc2nc(-c3c(C)nc4sccn34)cs2)c1	i

High-throughput results as filed in PubChem BioAssay.

Some of the compounds tested. The share of hits here may be higher or lower than overall.
